# Rango complex inh: qHTS Assay for Inhibitors of Rango (Ran-regulated importin-beta cargo) - Importin beta complex formation. Importin subunit beta-1 (Homo sapiens), Q14974. Rango CFP/YFP FRET sensor + importin beta, 45 min. Potency, µM (titrated, usually from 92.2 µM), for the others: at the top dose inhibition of complex formation. actives 0.031% (n = 340,000); active = rising FRET ratio curve, often small or poorly fitted; inconclusive = mostly compound fluorescence or quenching in the first reads; inactive = flat curves in all reads;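 note: potency is the fitted concentration of half-maximal effect; 0% = DMSO wells and 100% = buffer wells lacking importin beta; nearly all actives have a fitted effect of over 15% in size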
#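 FRET biosensor Rango (snurportin 1 IBB between N-terminal EYFP and C-terminal Cerulean), 50 nM in PBS/1 mM DTT/0.02% Tween-20/0.1% BSA, preincubated 5 min RT with compound; 0.125 microM importin beta added, 45 min RT, CFP/YFP FRET ratio read.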
# miR-21 FLuc: qHTS Assay for Modulators of miRNAs and/orActivators of miR-21; HeLa miR-21 FLuc reporter, luciferase, 48 h; Potency, µM (highest dose often 38.3 µM), without a hit: at the top dose reporter change, positive = more light; 340,000 tested, under 10 active; AID 2288, 2010; active = well fitted rising curve with a large enough effect; inconclusive = small, poorly fitted or top-dose-only effect; inactive = no such curve, though single readings can be large or run the other way;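 note: % of control where 0% means no effect; miR-21 action dims this reporter so a rising signal means less miR-21 action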
#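 Luminescence from a firefly luciferase reporter carrying a miR-21 binding site downstream, stably expressed under a CMV promoter in HeLa cells that make miR-21 endogenously, reports miRNA modulation after 48 h compound exposure up to approximately 40uM final.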
# Rango release inh: qHTS Assay for Inhibitors of RanGTP induced Rango (Ran-regulated importin-beta cargo) - Importin beta complex dissociation; Snurportin-1 (Homo sapiens) + GTP-binding nuclear protein Ran (Homo sapiens) + Importin …; Biochemical FRET Rango-importin beta, RanGTP-induced dissociation; Potency, µM (doses to about 46.1 µM), for inactives: at the highest dose activity change, negative = inhibition; actives 0.071% (n = 340,000); active means falling FRET ratio curve, often poorly fitted, with flat reads before Ran was added; inconclusive means other falling curves, or compound fluorescence or quenching; inactive means flat or rising ratio curve;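 note: potency is the fitted concentration of half-maximal effect; % of control where 0% means no effect; nearly all actives have a fitted effect of over 45% in size; -100% = wells without RanGTP and RCC1; the record marks most hits as doubtful in a second field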
#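 Rango/importin beta premix (0.1/0.25 uM final), PBS + 1 mM DTT + 0.02% Tween-20 + 0.1% BSA; cpd 5 min RT; FRET pre-read; + RanGTP-RCC1 (0.6 uM Ran, 2 mM GTP, 0.2 uM RCC1); 45 min RT; FRET post-read, ex 430, em 486/530 nm.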
# GLA inh pH 4.5: qHTS Assay for Inhibitors of Human alpha-Galactosidase at pH 4.5; 230,000 tested, under 10 active; AID 1467, 2008; activity change, negative = inhibition, % at 105 µM; Alpha-galactosidase A (Homo sapiens), P06280; purified enzyme, 4-MU-alpha-Gal fluorescence, pH 4.5; inconclusive = small, poorly fitted or top-dose-only inhibition, or a rising curve; inactive = flat fitted curve, though single readings scatter; no compound was filed as active;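 note: 0% = full activity with enzyme and -100% = basal without enzyme; dose as in the result columns while the protocol names 77 µM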
# Target sequence (P06280 whole entry, looked up): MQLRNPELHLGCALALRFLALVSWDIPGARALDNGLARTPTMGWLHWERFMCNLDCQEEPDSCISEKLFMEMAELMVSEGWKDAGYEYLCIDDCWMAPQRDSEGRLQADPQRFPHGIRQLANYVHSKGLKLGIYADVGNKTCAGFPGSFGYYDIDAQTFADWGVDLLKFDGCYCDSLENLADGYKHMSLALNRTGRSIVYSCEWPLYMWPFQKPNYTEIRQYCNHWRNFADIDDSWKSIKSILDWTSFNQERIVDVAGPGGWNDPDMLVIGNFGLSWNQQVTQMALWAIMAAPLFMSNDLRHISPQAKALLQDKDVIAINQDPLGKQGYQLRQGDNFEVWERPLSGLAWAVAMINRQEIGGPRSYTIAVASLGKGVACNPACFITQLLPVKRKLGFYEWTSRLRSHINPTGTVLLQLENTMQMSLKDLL
# An asterisk follows results filed as active; ? = inconclusive; . = no result given. Only part of the results is shown, so the mix of outcomes need not match the whole.
Rango complex inh,miR-21 FLuc,Rango release inh,GLA inh pH 4.5,smiles
-3.4%,10%,-4%,3,CN(C)C(CNC(=O)c1cc(S(=O)(=O)N(C)c2ccccc2)ccc1Cl)c1cccs1 (centres undefined)
-0.5%,-4%,3%,5,CCOc1ccccc1N1CCN(CC(=O)NCCc2ccc(S(N)(=O)=O)cc2)CC1
0.0%,-3%,10%,.,COc1cccc(OCC(=O)Nc2cc(NC(=O)COc3cccc(OC)c3)cc(C(=O)O)c2)c1
-1.2%,-36%,-6%,-7,Cc1ccc(C(=O)NCC(=O)OCc2csc(-c3ccccc3)n2)cc1
4.1%,?,-9%,1,NC1=NC[C@H](c2ccccc2)N1CCCCC1CCCCC1
0.0%,-1%,12%,0,Cc1ccc(NC(=S)N2CCN(c3nccc(C(F)(F)F)n3)CC2)c(C)c1
-1.4%,0%,-3%,1,CCC(C)NC(=O)NC(=O)N(C1CCCCC1)S(C)(=O)=O (centres undefined)
-0.7%,.,9%,.,COc1ccc(OC)c(C=NNC(=O)c2ccccc2NS(=O)(=O)c2cccs2)c1
-1.9%,.,-7%,.,COc1cc2ccccc2cc1C(=O)N1CCc2ccccc21
-4.4%,-1%,-5%,.,Cn1nccc1C(=O)N1CCN(C23CC4CC(CC(C4)C2)C3)CC1
5.6%,-1%,-6%,5,CCOC(=O)C(N)CSC1CC(=O)N(c2ccc(C(=O)OC)cc2)C1=O (centres undefined)
?,0%,6%,3,CC1(C)C(C#N)=C(N)OC2=C1C(=O)CCC2
0.9%,0%,-20%,-2,Cc1nnc2ccc(-c3cccc(NC(=O)c4ccc(Cl)nc4)c3)nn12
?,3%,-18%,1,C#CCOCCOCCOCCNc1nc(N2CCN(C(=O)[C@H](Cc3cc4ccccc4[nH]3)n3cc([C@@H](N)C(C)CC)nn3)CC2)nc(N2CCN(C(=O)[C@H](CCCCN)n3cc([C@@H](N)CC(C)C)nn3)CC2)n1 (some centres undefined)
1.5%,8%,-8%,.,COc1ccc(-c2cc(C(=O)N3CCOCC3)no2)cc1
-2.0%,.,-24%,.,COc1cc(C=NNC(=O)c2ccccc2NS(=O)(=O)c2cccs2)cc(OC)c1O
-1.2%,-2%,1%,.,Cc1ccnc(NS(=O)(=O)c2ccc(NC(=O)CCOc3ccccc3)cc2)n1
0.4%,0%,-2%,.,COCCCn1c(C)nnc1SCC(=O)NNC(=O)COc1ccc(Cl)cc1
-1.1%,-2%,0%,0,O=C(OCc1cc(Cl)ccc1OC(F)F)c1cncc(Br)c1
1.4%,-39%,-5%,-6,Cc1cc(=O)n2[nH]c(-c3ccc(F)cc3)cc2n1

# Some of these compounds in order of their number in Rango complex inh, low to high.
Rango complex inh,miR-21 FLuc,Rango release inh,GLA inh pH 4.5,smiles
-1.9%,.,-7%,.,COc1cc2ccccc2cc1C(=O)N1CCc2ccccc21
-0.7%,.,9%,.,COc1ccc(OC)c(C=NNC(=O)c2ccccc2NS(=O)(=O)c2cccs2)c1
0.0%,-1%,12%,0,Cc1ccc(NC(=S)N2CCN(c3nccc(C(F)(F)F)n3)CC2)c(C)c1
0.9%,0%,-20%,-2,Cc1nnc2ccc(-c3cccc(NC(=O)c4ccc(Cl)nc4)c3)nn12
1.4%,-39%,-5%,-6,Cc1cc(=O)n2[nH]c(-c3ccc(F)cc3)cc2n1

# (continued)
Rango complex inh,miR-21 FLuc,Rango release inh,GLA inh pH 4.5,smiles
0.8%,-4%,-7%,8,O=C(COc1ccccc1Cl)NNC(=O)C1CCCO1 (centres undefined)
-0.1%,-3%,-1%,.,Cc1[nH]c2ccc(C(=O)NCCCN3CCCCCC3)cc2c1C
-5.6%,-58%,12%,2,Cc1c(/C=C/C(=O)c2ccccc2)cnn1C
0.3%,.,-9%,.,C(=NOCc1ccccc1)c1ccncc1
-0.6%,-5%,2%,2,Cc1ccc(OCC(O)CNS(=O)(=O)c2ccccc2C(=O)O)cc1 (centres undefined)
-3.7%,.,-18%,.,CCOc1ccccc1OCCCC(=O)N1CCN(S(=O)(=O)c2ccc(Cl)cc2)CC1
-2.0%,-1%,-4%,.,Cc1cc(C)n(C(=O)N(c2ccccc2)c2ccccc2)n1
-1.1%,-4%,15%,.,O=P(c1ccccc1)(c1ccccc1)c1ccc(O)cc1
0.1%,-64%,4%,-9,COc1ccc(/C=N/NC(=O)c2ccoc2C)cc1OC
3.8%,1%,-7%,-1,Cc1cc(C)nc(Nc2n[nH]c(COc3ccc(Cl)cc3)n2)n1
0.5%,.,0%,.,O=C(CCS(=O)(=O)c1ccccc1)Nc1nc(-c2ccccn2)cs1
5.6%,-41%,?,1,CCOC(=O)CN(Cc1sccc1C)C(=O)Nc1cccc(OC)c1
-0.1%,-2%,-6%,.,N#Cc1cccc(NC(=O)Cn2cnc(S(=O)(=O)N3CCCCC3)c2)c1
3.3%,.,-8%,.,CC(=O)c1ccc(S(=O)(=O)NCCC(=O)NC2CCN(Cc3ccccc3)CC2)cc1
-2.1%,0%,8%,1,Cc1ccc(Cl)cc1NC(=O)C1CC(=O)Nc2ncnn21 (centres undefined)
?,.,-29%,.,COc1ccc(OC)c(C(=O)COC(=O)COc2ccccc2)c1
-0.2%,-10%,-10%,.,Cc1cccc(NC(=O)N2CCCCCC2)c1C
-2.3%,-1%,4%,-7,CCOC(=O)c1nnn(-c2nonc2N)c1CNc1ccccc1
-4.5%,1%,11%,.,Cn1c(=O)c2sccc2n2c(CCCC(=O)N3CCCCC3)nnc12
-1.2%,-22%,?,6,O=C(Cc1ccccc1)NCCc1ccc(Cl)cc1Cl
0.7%,-3%,1%,9,COc1cccc(/C=C2\N=C(c3c(-c4ccccc4)noc3C)OC2=O)c1
0.7%,-1%,-11%,5,COc1ccc2[nH]cc(CCn3ccc(=O)c(C)c3C)c2c1
-5.0%,2%,15%,-5,Cc1ccc(NC(=O)CN(C)c2ccc(S(=O)(=O)N3CCCC3)cn2)cc1
-1.8%,0%,-20%,4,Cc1ccc(CNCC(=O)Nc2cccc(S(=O)(=O)NC3=NCCCCC3)c2)cc1
-4.9%,-7%,2%,.,CC(=O)c1ccc(N2CCN(C(=O)C(=O)c3cn(CC(=O)N4CCCCCC4)c4ccccc34)CC2)cc1
-1.4%,1%,37%,6,CCCc1[nH]nc2c1C(c1ccc(OC)cc1OC)C(C#N)=C(N)O2 (centres undefined)
1.3%,-35%,3%,-10,CCOc1ccc(OCc2cccc(C(=O)N3CCCCCC3)c2)cc1
-3.6%,-10%,-4%,-1,CCOC(=O)C1CCCN(C(=S)NC2CCCCC2)C1 (centres undefined)
-6.2%,-3%,9%,-2,O=S(=O)(c1ccc(S(=O)(=O)n2cnc3ccccc32)cc1)N1CCCCCC1
-1.8%,3%,-2%,-1,Cn1c2c(c(=O)n(C)c1=O)C(NC(=O)C(C)(C)C)(C(F)(F)F)C(=O)N2 (centres undefined)
-2.7%,-15%,8%,2,CCC(C)NC(=O)COC(=O)c1cccnc1Nc1ccccc1F (centres undefined)
-2.3%,-59%,-18%,-2,Cc1ccc(/C=c2/sc3n(c2=O)CCCN=3)o1
-0.6%,-1%,17%,.,O=C(NNC(=O)c1ccc(Cn2cccn2)o1)NC12CC3CC(CC(C3)C1)C2
1.9%,-4%,-3%,0,CC(C)CC1=NN(C(=O)c2cccnc2)C(O)(C(F)(F)F)C1 (centres undefined)
1.6%,-2%,11%,13,O=C(COC(=O)CNC(=O)c1ccccc1)Nc1ccc2c(c1)OCO2
.,0%,.,0,O=C(N/N=C1/CCCc2ccccc21)c1cc([N+](=O)[O-])cc([N+](=O)[O-])c1
0.0%,-15%,12%,4,COc1ccc(Cl)cc1NC(=O)c1noc2c1CCCC2
?,.,-3%,.,CCCCn1c(N)c(N(CC(C)C)C(=O)CSCc2ccc(Cl)c(Cl)c2)c(=O)[nH]c1=O
-1.3%,3%,5%,8,CC1(C)CC(=O)C2=C(C1)NC(=O)NC2c1ccccc1 (centres undefined)
-1.8%,-3%,1%,-3,CCN(CC)c1ccc(C=C2C(=O)OC3(CCCC3)OC2=O)cc1
-1.5%,0%,0%,6,CCOC(=O)/C(=C/c1ccco1)NC(=O)c1ccc(Br)o1
0.3%,-1%,0%,-4,C(=N\c1nc2ccccc2n1CCN1CCOCC1)/c1cccs1
2.0%,-2%,-15%,-4,COc1ccc(OCCNS(=O)(=O)c2ccc3oc4ccccc4c3c2)cc1
8.1%,0%,4%,2,Cc1cc(C)cc(NC(=O)C2CC(=O)n3ncnc3N2)c1 (centres undefined)
-2.4%,7%,5%,-9,S=C(Nc1ccc(Oc2ccccc2)cc1)NC1CCCCCC1
-4.8%,.,4%,.,CC1CC(OC(=O)C2CCN(S(=O)(=O)c3ccc(F)cc3)CC2)C(=O)O1 (centres undefined)
-2.8%,13%,3%,10,Nn1c(Cc2cccc3ccccc23)nnc1SCc1ccc(Cl)c(Cl)c1
0.3%,-11%,-4%,-1,CCOC(=O)C1=C(C)NC(=O)NC1c1ccc2c(c1)OCO2 (centres undefined)
-0.7%,-50%,0%,-10,O=C(COc1ccccc1[N+](=O)[O-])N/N=C/c1ccccn1
-2.9%,.,-3%,.,CC(Oc1ccc(F)cc1)C(=O)Nc1nc(-c2ccccn2)cs1 (centres undefined)

# Whole records as entered above. Order of values: Rango complex inh, miR-21 FLuc, Rango release inh, GLA inh pH 4.5
# CCOC(=O)C1=C(C)NC(=O)NC1c1ccc2c(c1)OCO2 (centres undefined) is listed as 0.3%, -11%, -4%, -1
# CC(Oc1ccc(F)cc1)C(=O)Nc1nc(-c2ccccn2)cs1 (centres undefined) is listed as -2.9%, ., -3%, .
# C(=N\c1nc2ccccc2n1CCN1CCOCC1)/c1cccs1 is listed as 0.3%, -1%, 0%, -4

# Next part.
Rango complex inh,miR-21 FLuc,Rango release inh,GLA inh pH 4.5,smiles
-1.0%,-4%,2%,10,O=c1c2ccccc2sc2nc(C3CCCCC3)n(Cc3ccco3)c(=O)c12
-3.0%,-12%,2%,12,O=C(Nc1nccs1)c1ccc(N2C(=O)C3CCCCC3C2=O)cc1 (centres undefined)
1.1%,-8%,3%,-2,CC(C)(C)c1cc(CN(CCO)CCO)cc(C(C)(C)C)c1O
4.3%,-4%,-11%,1,CNC(=O)Cn1ncc2c(C)n(Cc3ccc(C)cc3)c(C)c2c1=O
?,0%,6%,10,COc1ccccc1N(C)S(=O)(=O)c1ccc(C(=O)OCC(=O)NCc2ccco2)cc1
?,-34%,?,.,COc1cc2c(cc1OC)/C(=C/C(=O)c1ccc(NC(C)=O)cc1)NCC2
-1.1%,-23%,-18%,4,O=c1c(-c2n[nH]c(=S)n2-c2ccccc2)cccn1Cc1cccc(Cl)c1
-1.6%,1%,20%,.,COc1cccc(NS(=O)(=O)c2csc(C(N)=O)c2)c1
.,?,.,-5,C#Cc1ccc([C@@H]2C=C(C(=O)N3CCN(Cc4ccccc4)CC3)O[C@H](OCCCCO)C2)cc1
-0.1%,.,0%,.,CC[C@@H]1C=C(C(=O)O)[C@H](c2ccc(Br)cc2)N1S(=O)(=O)c1ccc(C)cc1
0.0%,-10%,1%,.,CCc1ccc(Nc2ccc(C(=O)O)cc2[N+](=O)[O-])cc1
0.0%,-8%,0%,-12,O=C(c1cc2c(s1)CCCC2)N1CCN(C(=O)C2CCCO2)CC1 (centres undefined)
-4.1%,0%,-5%,-3,O=C1CC(c2cccs2)Cc2nc(NC(=O)C3CC3)ncc21 (centres undefined)
